Assay outcomes: PubChem BioAssay, several laboratories
Vif A3G: inhibitors of Vif binding to APOBEC3G peptide, primary screen, biochemical, TR-FRET, GST-Vif 1-94, biotin-A3G peptide, dose response retest (AID 1117319); TR-FRET GST-Vif / biotin-A3G peptide binding; higher % means a stronger effect; test concentration not given here; strong numbers were not always called active; one-dose inhibition, %; IC50 in µM for titrated hits; hit rate 0.57% among 260,000;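 active = above the screen mean plus three standard deviations and confirmed in dose response; inconclusive = results disagree or hit not tested in dose response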;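 also: Vif residues 1-94 fused to GST binding biotinylated APOBEC3G peptide 110-148; 0% = full assay without inhibitor and 100% = GST in place of GST-Vif; retest series ran down from 100 µM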
B2AR ag: human beta-2 adrenergic receptor agonism by FAP. P07550. Am2.2-beta2AR cells, FAP receptor internalization, flow cytometry; reference of the scale not given here. response, % (concentration not given with the values). hit rate 0.43% among 340,000. AID 504454;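 active = response above a set limit, near 3 SD of response in nonfluorescent compounds, cut at about 42% in these data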;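 also: stock transfer was 100 nL into about 11 µL; a reference agonist was the positive control; negative values mostly stem from fluorescent compounds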
HNF4A DNA FP: change in binding of human HNF4 alpha to DNA; activity change, % at 10 µM; P41235; HNF4a-FITC DNA binding, fluorescence polarization, 1 h; hit rate 0.3% among 360,000; in the data active = activity change above about 30%, passing the limit was not always enough;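 also: controls were the assay level and a saturating level of protein; the project sought stronger binding though the title names inhibitors; some compounds called inactive have numbers as strong as hits; positive values seem to mean higher polarization but the record does not say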
Calb FLC: affects C. albicans growth with fluconazole. C. albicans CaCi-2 (fluconazole-resistant clinical isolate) + fluconazole, Alamar Blue growth, 48 h. hit rate 0.57% among 300,000. growth inhibition, % (no concentration beside the values);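 active = most replicates above 75%; inconclusive = exactly half above 75%; inactive = most below 75%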;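 also: all wells also contain fluconazole at 8 µg/ml as a sub-toxic cotreatment; 0% = median of DMSO wells and 100% = median of geldanamycin control wells; wells of about 8 µL received 7.5 nL stock; the first replicate is given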
RanGTP-Imp inh: disruptors of Ran-importin-beta complex formation – biochemical, FRET, CFP-Ran, YFP-importin-beta, homogeneous, primary screen; AID 2216; inhibition, % (no concentration beside the values); cell-free CFP-Ran/YFP-importin-beta FRET ratio; hit rate 1.1% among 300,000;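 active = most replicates above 15%; inconclusive = exactly half above 15%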;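 also: 0% = DMSO wells and 100% = Ran loaded with GDP instead of GTP; wells of about 40 µL received 100 nL stock; the first replicate is given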
ALR H2O2 inh: blocks human ALR sulfhydryl oxidase activity | P55789 | purified ALR, DTT oxidation, H2O2 HRP-luminol luminescence | inhibition, % (concentration not given with the values) | hit rate 3.8% among 290,000 | AID 485317;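 active = mean and each replicate at 75% or more; inconclusive = only one of the two met; inactive = neither met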;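 also: stock transfer was 7.5 nL into about 7.5 µL; 0% = neutral wells and 100% = wells with inactivated enzyme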
LANA-H2B inh: blocks KSHV LANA binding to histone H2A/H2B; inhibition, % (no concentration beside the values); hit rate 0.6% among 320,000; cell-free LANA-H2A/H2B peptide, fluorescence polarization; Q9QR71; AID 2629; in the data active = inhibition mostly above about 10%, no sharp cut-off; inactive = mostly below about 6.7%;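 also: stock transfer was 7.5 nL into about 10 µL; 0% = median of vehicle wells and 100% = median of positive control wells; one replicate is shown; the record names a cut of 25% in any replicate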
Target sequence (Q9QR71 whole entry, looked up): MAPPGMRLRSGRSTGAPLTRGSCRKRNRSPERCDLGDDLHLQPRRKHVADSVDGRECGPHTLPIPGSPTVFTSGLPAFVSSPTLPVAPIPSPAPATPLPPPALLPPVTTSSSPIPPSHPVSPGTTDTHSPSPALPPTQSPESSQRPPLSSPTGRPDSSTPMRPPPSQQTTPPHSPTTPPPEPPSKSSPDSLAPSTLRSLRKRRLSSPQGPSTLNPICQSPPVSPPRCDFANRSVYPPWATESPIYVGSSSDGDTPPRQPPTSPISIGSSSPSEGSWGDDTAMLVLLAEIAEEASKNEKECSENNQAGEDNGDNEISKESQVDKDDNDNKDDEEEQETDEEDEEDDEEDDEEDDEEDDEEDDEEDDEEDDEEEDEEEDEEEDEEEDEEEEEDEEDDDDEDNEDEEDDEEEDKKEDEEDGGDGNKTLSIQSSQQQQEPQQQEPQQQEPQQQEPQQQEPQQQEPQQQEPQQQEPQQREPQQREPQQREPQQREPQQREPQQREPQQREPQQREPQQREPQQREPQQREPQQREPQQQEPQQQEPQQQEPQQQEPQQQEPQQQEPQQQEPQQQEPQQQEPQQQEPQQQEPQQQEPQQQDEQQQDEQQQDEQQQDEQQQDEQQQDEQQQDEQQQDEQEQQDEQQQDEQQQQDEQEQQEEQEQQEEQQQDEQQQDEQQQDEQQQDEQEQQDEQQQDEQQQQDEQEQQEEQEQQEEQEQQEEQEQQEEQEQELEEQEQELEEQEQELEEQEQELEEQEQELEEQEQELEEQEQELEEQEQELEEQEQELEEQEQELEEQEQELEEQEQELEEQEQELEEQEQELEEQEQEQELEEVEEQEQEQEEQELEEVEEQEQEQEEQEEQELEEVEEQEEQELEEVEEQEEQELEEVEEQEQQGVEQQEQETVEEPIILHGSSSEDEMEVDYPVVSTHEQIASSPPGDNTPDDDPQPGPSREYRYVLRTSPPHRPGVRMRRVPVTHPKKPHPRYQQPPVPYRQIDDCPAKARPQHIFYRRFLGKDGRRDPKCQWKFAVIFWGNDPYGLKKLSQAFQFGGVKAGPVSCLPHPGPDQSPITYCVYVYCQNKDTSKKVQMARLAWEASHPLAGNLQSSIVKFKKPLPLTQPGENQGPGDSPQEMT
The depositor's hits bear a star; & = joins results of further samples. No enrichment for hits, and some 6.3% of all compounds hit somewhere here.

Screening O=C(O)c1cnn(-c2ccccc2)c1-n1cccc1 returned Vif A3G 13%, B2AR ag -7, HNF4A DNA FP -3.8, Calb FLC -4, RanGTP-Imp inh -1.2, ALR H2O2 inh 1 and LANA-H2B inh 3.9.
Screening COc1cccc(NC(=O)COC(=O)c2ccccc2C(=O)N(C)c2ccccc2)c1 returned Vif A3G 1%, B2AR ag -2, HNF4A DNA FP 1.2, ALR H2O2 inh 0 and LANA-H2B inh -2.6.
Screening COc1ccc(NS(=O)(=O)c2ccc(Br)cc2)cn1 returned B2AR ag 3, HNF4A DNA FP 0.5, Calb FLC -3, RanGTP-Imp inh -5.6, ALR H2O2 inh 5 and LANA-H2B inh 2.2.
For O=C(/C=C/c1ccc(Cl)cc1)Nc1ccc(Br)cn1 the results were Vif A3G -1%, HNF4A DNA FP 1.4, Calb FLC -15, RanGTP-Imp inh 0.1, ALR H2O2 inh 7 and LANA-H2B inh 7.6.
Screening CC(C)(C)C1=C(C#N)C(c2cc3c(cc2Br)OCO3)C(C#N)=C(N)O1 (centres undefined) returned B2AR ag 4, HNF4A DNA FP 0.7, Calb FLC 0, RanGTP-Imp inh -0.4, ALR H2O2 inh -35 and LANA-H2B inh 14.
O=C(Cn1cnc2sc(-c3ccccc3)cc2c1=O)NCc1ccco1 was read as Vif A3G 1%&-1%, B2AR ag 7, HNF4A DNA FP 0.5, ALR H2O2 inh 2 and LANA-H2B inh -1.8.
For C/C(Sc1nnc(Cc2ccccc2)o1)=C(/O)c1ccccc1 the results were Vif A3G 15%, B2AR ag 2, HNF4A DNA FP 0.7, Calb FLC 13, RanGTP-Imp inh 0.6, ALR H2O2 inh -2 and LANA-H2B inh -0.3.
Screening COc1cc(OC)cc(C(=O)NCc2cc(C)nc3ccccc23)c1 returned B2AR ag -8, HNF4A DNA FP 2.0, Calb FLC -2, RanGTP-Imp inh -1.2, ALR H2O2 inh -2 and LANA-H2B inh 6.4.
C=CCC[C@@H](Cc1ccc(F)cc1)C(=O)OC[C@H](Cc1c[nH]c2ccccc12)NC(=O)[C@H](CC=C)CC(=O)N(CCO)Cc1ccccc1 was read as Vif A3G 3%, B2AR ag 3 and HNF4A DNA FP -1.7.
O=C(O)CONC(=O)c1cc(OCC(F)(F)F)ccc1OCC(F)(F)F was read as Vif A3G inconclusive, B2AR ag 3, HNF4A DNA FP 2.5, Calb FLC -18, RanGTP-Imp inh 2.8, ALR H2O2 inh -8 and LANA-H2B inh -4.0.
`CN(C)S(=O)(=O)c1ccc(C(=O)/C=C/c2cccnc2)cc1` gave B2AR ag -3, HNF4A DNA FP -1.9, Calb FLC 19, RanGTP-Imp inh 3.1, ALR H2O2 inh 3 and LANA-H2B inh -2.4.
For CCc1ccc(-c2ccc(C(=O)C(F)(F)F)[nH]2)cc1 the results were Vif A3G 1%, B2AR ag 3, HNF4A DNA FP -0.2, Calb FLC -13, RanGTP-Imp inh 2.7, ALR H2O2 inh -11 and LANA-H2B inh 3.2.
`O=C(Nc1ccccc1)C1CCN(c2nccs2)CC1` gave Vif A3G -6%, B2AR ag 0, HNF4A DNA FP 2.4, Calb FLC -2, RanGTP-Imp inh 0.4, ALR H2O2 inh 1 and LANA-H2B inh -0.3.
O=C1CN(C(=O)COC(=O)CCS(=O)(=O)c2ccccc2Cl)c2ccccc2N1 was read as B2AR ag 0, HNF4A DNA FP 4.2, ALR H2O2 inh 1 and LANA-H2B inh 2.3.
CCCn1c(C(O)c2ccc(OCC)cc2)nc2ccccc21 (centres undefined) was read as Vif A3G 10%, B2AR ag -7, HNF4A DNA FP -3.6, Calb FLC 0, RanGTP-Imp inh 1.5, ALR H2O2 inh -7 and LANA-H2B inh -4.0.
CCc1cccc(NC(=O)C2CCCN2S(=O)(=O)c2ccc3c(c2)CC(C)N3C(C)=O)c1 (centres undefined) was read as Vif A3G -3%, B2AR ag -3, HNF4A DNA FP 3.7, Calb FLC 4, RanGTP-Imp inh 2.6, ALR H2O2 inh 1 and LANA-H2B inh 0.5.
COc1ccc(/C=C/C(=O)C2(O)CCCCC2)cc1 was read as Vif A3G 1%, B2AR ag 3, HNF4A DNA FP 1.2, Calb FLC -5, RanGTP-Imp inh 0.2, ALR H2O2 inh 5 and LANA-H2B inh -2.4.
CSCCC(NS(=O)(=O)c1ccc(Cl)cc1)C(=O)OCC(=O)NC1CC1 (centres undefined) was read as Vif A3G -9%, B2AR ag -5, HNF4A DNA FP -1.3, Calb FLC -1, RanGTP-Imp inh 3.2, ALR H2O2 inh -6 and LANA-H2B inh -3.5.
COc1ccc(N(CC2CO2)S(=O)(=O)c2ccc(C)cc2)cc1 (centres undefined) was read as Vif A3G -2%, B2AR ag -7, HNF4A DNA FP -0.3, Calb FLC 2, RanGTP-Imp inh 0.4, ALR H2O2 inh -1 and LANA-H2B inh 2.2.
For Cc1ccc2c(c1)N(C(=O)CCC(=O)N1CCN(c3ccccc3)CC1)CCO2 the results were B2AR ag 2, HNF4A DNA FP 0.3, Calb FLC -9, RanGTP-Imp inh 0.4, ALR H2O2 inh 42 and LANA-H2B inh -0.6.

Part of the list above in order of count of non-hydrogen atoms, falling:
For Cc1ccc2c(c1)N(C(=O)CCC(=O)N1CCN(c3ccccc3)CC1)CCO2 the results were B2AR ag 2, HNF4A DNA FP 0.3, Calb FLC -9, RanGTP-Imp inh 0.4, ALR H2O2 inh 42 and LANA-H2B inh -0.6.
For C/C(Sc1nnc(Cc2ccccc2)o1)=C(/O)c1ccccc1 the results were Vif A3G 15%, B2AR ag 2, HNF4A DNA FP 0.7, Calb FLC 13, RanGTP-Imp inh 0.6, ALR H2O2 inh -2 and LANA-H2B inh -0.3.
COc1ccc(/C=C/C(=O)C2(O)CCCCC2)cc1 was read as Vif A3G 1%, B2AR ag 3, HNF4A DNA FP 1.2, Calb FLC -5, RanGTP-Imp inh 0.2, ALR H2O2 inh 5 and LANA-H2B inh -2.4.

More results follow.
For CCOc1ccc(C2CC(c3cccc(Cl)c3)n3nc(N)nc3N2)cc1 (centres undefined) the results were Vif A3G -1%, B2AR ag 5, HNF4A DNA FP -6.0, Calb FLC 5, RanGTP-Imp inh 26*, ALR H2O2 inh -6 and LANA-H2B inh 5.4.
`CCOC(=O)c1cc2sccc2n1CC(=O)N1CCCc2ccccc21` gave Vif A3G -5%, B2AR ag 8, HNF4A DNA FP -0.6, Calb FLC 1, RanGTP-Imp inh -0.8, ALR H2O2 inh 5 and LANA-H2B inh -7.0.
For O=C1N/C(=N\N=C\c2cccs2)SC1Cc1ccc(Cl)cc1Cl (centres undefined) the results were Vif A3G 10%, B2AR ag -3, HNF4A DNA FP -3.6, Calb FLC -3 and RanGTP-Imp inh 5.3.
For O=C(CCCCCCCCC(=O)N1CCCCC1)N1CCCCC1 the results were Vif A3G 6%, B2AR ag -2 and HNF4A DNA FP -5.7.
O=C(O)Cc1ccc(-c2ccccc2-c2ccccc2)cc1 was read as Vif A3G -1%, B2AR ag 5, HNF4A DNA FP -2.0, Calb FLC 0, RanGTP-Imp inh 1.4 and LANA-H2B inh -1.1.
CCc1nnc(NC(=O)C(C)N2C(=O)C3C4C=CC(C4)C3C2=O)s1 (centres undefined) was read as Vif A3G 24%, B2AR ag 3, HNF4A DNA FP -3.1, Calb FLC 16, RanGTP-Imp inh 4.7, ALR H2O2 inh -1 and LANA-H2B inh 0.9.
O=C1CN(C(=O)COc2c(F)c(F)cc(F)c2F)c2ccccc2N1 was read as Vif A3G -1%, B2AR ag 1, HNF4A DNA FP -5.1, Calb FLC 27, RanGTP-Imp inh 0.9, ALR H2O2 inh -10 and LANA-H2B inh 4.0.
`O=C1CCc2cc(S(=O)(=O)N3CCCC3C(=O)N3CCN(c4ccccc4F)CC3)ccc2N1` (centres undefined) gave Vif A3G -2%, B2AR ag 2, HNF4A DNA FP -3.3, ALR H2O2 inh 10 and LANA-H2B inh -2.0.
Screening CCc1nnc(NC(=O)CCN2C(=O)/C(=C/c3cc(OC)c(OC)c(OC)c3)SC2=S)s1 returned B2AR ag 12, HNF4A DNA FP 21, Calb FLC -14, RanGTP-Imp inh -0.4, ALR H2O2 inh -4 and LANA-H2B inh -0.7.
Screening CCOC(=O)N1CCN(Cc2c(O)ccc3ccccc23)CC1 returned B2AR ag -9, HNF4A DNA FP -4.9, Calb FLC 7, RanGTP-Imp inh 3.3, ALR H2O2 inh -3 and LANA-H2B inh -3.8.
For CC(C)(C)c1ccc(-c2csc(NNC3=NCCCCC3)n2)cc1 the results were Vif A3G 19%, B2AR ag -2, HNF4A DNA FP 0.4, Calb FLC -11, RanGTP-Imp inh -0.9, ALR H2O2 inh 49 and LANA-H2B inh -0.5.
COc1ccc2oc(/C=C/N(C)C)c(C(=O)c3ccc(Cl)cc3)c2c1 was read as Vif A3G 10%, B2AR ag 3, HNF4A DNA FP 9.1, Calb FLC 31, RanGTP-Imp inh 2.0, ALR H2O2 inh -5 and LANA-H2B inh 0.8.
Screening O=C(Nc1nnc(C2CC2)s1)c1ccccn1 returned Vif A3G 12%, B2AR ag -1, HNF4A DNA FP 2.1, Calb FLC -21, RanGTP-Imp inh -4.4, ALR H2O2 inh -2 and LANA-H2B inh -2.5.
Screening CCCSc1nc2sc3c(c2c(=O)[nH]1)CC(C)(CC)OC3 (centres undefined) returned Vif A3G 0%, B2AR ag 0, HNF4A DNA FP 2.7, Calb FLC -8, RanGTP-Imp inh 4.5, ALR H2O2 inh -11 and LANA-H2B inh 7.8.
Cc1noc(C)c1CSc1nc2ccccc2[nH]1 was read as Vif A3G 1%, B2AR ag 5, HNF4A DNA FP 0.1, Calb FLC 0, RanGTP-Imp inh -2.5, ALR H2O2 inh 99* and LANA-H2B inh 5.2.
CCN(CC)C(=O)c1cccc(NC(=O)CCc2nc3sc4c(c3c(=O)[nH]2)CCCC4)c1 was read as Vif A3G 1%, B2AR ag 11 and HNF4A DNA FP 1.1.
For CN(CC(=O)NCc1ccccc1Cl)CC(=O)Nc1ccccc1Br the results were B2AR ag -3, HNF4A DNA FP -3.5, ALR H2O2 inh -1 and LANA-H2B inh -5.3.
CC(C)Cc1nc2oc3c(=O)[nH]cnc3c2c2c1CCCC2 was read as B2AR ag -7, HNF4A DNA FP 1.4, Calb FLC 60, RanGTP-Imp inh 2.8, ALR H2O2 inh 9 and LANA-H2B inh -1.3.
For O=C(N1CCN(CCO)CC1)N1c2ccccc2C=Cc2ccccc21 the results were Vif A3G 10%, B2AR ag -1, HNF4A DNA FP 7.3, Calb FLC -3, RanGTP-Imp inh 3.2, ALR H2O2 inh 0 and LANA-H2B inh 2.4.
Screening COC(=O)c1cccc(NC(=O)Nc2ccc(Cl)cc2)c1 returned Vif A3G 32%, B2AR ag -1, HNF4A DNA FP -3.4, Calb FLC -15, RanGTP-Imp inh 4.1 and LANA-H2B inh 0.9.
`O=C(C[n+]1ccccc1)N/N=C/c1cccs1` gave Vif A3G 4%, B2AR ag -2, HNF4A DNA FP 2.3, Calb FLC 95*, RanGTP-Imp inh 3.8, ALR H2O2 inh -17 and LANA-H2B inh -2.1.
For COc1cccc(C(=O)Nn2c(-c3cccs3)nc3ccccc3c2=O)c1OC the results were Vif A3G 5%, B2AR ag -11, HNF4A DNA FP 4.2, Calb FLC -26, RanGTP-Imp inh 5.6, ALR H2O2 inh -5 and LANA-H2B inh 0.5.
Cc1nc(NCc2ccccn2)c2c3c(sc2n1)CCCC3 was read as Vif A3G 4%, B2AR ag 2, HNF4A DNA FP -0.3, Calb FLC 51, RanGTP-Imp inh 1.3, ALR H2O2 inh 11 and LANA-H2B inh -1.4.
`Cc1cc(C)nc(S/C=C/C(=O)c2ccccc2)n1` gave B2AR ag 42, HNF4A DNA FP -1.0, Calb FLC -1, RanGTP-Imp inh -0.2, ALR H2O2 inh 18 and LANA-H2B inh -2.6.
